Vif A3G: inhibitors of Vif binding to APOBEC3G peptide, primary screen, biochemical, TR-FRET, GST-Vif 1-94, biotin-A3G peptide, dose response retest (AID 1117319); Virion infectivity factor (Human immunodeficiency virus type 1 group M subtype B (isolate …; TR-FRET GST-Vif / biotin-A3G peptide binding; higher % means a stronger effect; test concentration not given here; strong numbers were not always called active; inhibition, %, or IC50 in µM where a hit was titrated; 260,000 tested, 0.57% active;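 active means above the screen mean plus three standard deviations and confirmed in dose response; inconclusive means results disagree or hit not tested in dose response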;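 further: Vif residues 1-94 fused to GST binding biotinylated APOBEC3G peptide 110-148; 0% = full assay without inhibitor and 100% = GST in place of GST-Vif; retest series ran down from 100 µM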
UCH37 DUB inh: inhibitors of human UCH37 deubiquitinase, primary screen, biochemical, Ub-AMC cleavage, fluorescence. Ubiquitin carboxyl-terminal hydrolase isozyme L5 (Homo sapiens), Q9Y5K5. 330,000 tested, 0.33% active. AID 588478, 2011. inhibition, % (concentration not given with the values). purified proteasome/UCH37;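 active means mean of two replicates above 20%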;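 further: 0% = compound-free wells with enzyme and 100% = wells lacking proteasome; stock transfer was 100 nL into about 20 µL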
Target sequence (Q9Y5K5 whole entry, looked up): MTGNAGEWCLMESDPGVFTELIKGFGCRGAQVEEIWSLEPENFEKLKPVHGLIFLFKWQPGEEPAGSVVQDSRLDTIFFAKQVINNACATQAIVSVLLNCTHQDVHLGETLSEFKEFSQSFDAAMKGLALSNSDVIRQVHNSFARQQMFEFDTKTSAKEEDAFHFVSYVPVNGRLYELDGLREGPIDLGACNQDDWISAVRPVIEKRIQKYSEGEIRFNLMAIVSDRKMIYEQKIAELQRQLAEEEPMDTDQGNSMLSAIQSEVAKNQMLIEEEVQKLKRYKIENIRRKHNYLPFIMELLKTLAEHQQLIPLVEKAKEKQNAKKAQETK
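Reagent: Ub-AMC substrate; assay system: Proteasome-associated human UCH37 deubiquitinase; controls: no-proteasome and no-compound wells; read-out: % inhibition of Ub-AMC cleavage fluorescence; timing: 30 min preincubation with enzyme, 25 min cleavage at room temperature; signal: AMC fluorescence from Ub-AMC cleavage, excitation 355 nm, emission 460 nm; buffer or medium: Tris-HCl pH 7.4 plus ovalbumin, ATP-MgCl2, DTT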
E coli growth: E. coli growth inhibition, primary screen, OD600; Escherichia coli growth, 23 h; stronger effect = lower value; OD600 absorbance (test concentration not listed); 330,000 tested, 0.21% active;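 active means OD600 absorbance below the run mean of sample wells minus 3.6 SD, in any replicate, cut at about 0.56 in these data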;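 further: stock transfer was 300 nL into about 60 µL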
RanGTP-Impb inh: inhibitors of RanGTP-importin-beta interaction, primary screen, biochemical, FRET, CFP-Ran, YFP-importin-beta, homogeneous | Ran GTPase (GTP-bound) - importin-beta complex | cell-free CFP-Ran/YFP-importin-beta FRET ratio | inhibition, % (test concentration not listed) | 300,000 tested, 1.1% active | AID 2216, 2009;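 active means most replicates above 15%; inconclusive means exactly half above 15%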;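 further: 0% = DMSO wells and 100% = Ran loaded with GDP instead of GTP; wells of about 40 µL received 100 nL stock; the first replicate is given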
FGF22 binding: binders of human FGF22 protein, primary screen, FGF22 synaptogenesis inhibitor project, biophysical, thermal shift, single point. Fibroblast growth factor 22 (Homo sapiens), Q9HCT0. recombinant FGF22 thermal shift, SYPRO orange fluorescence; percent of sucrose octasulfate shift, DMSO zero. calls only at 9.99 µM. 340,000 tested, 1.5% active. AID 651658, 2012;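 active means melting point raised past a set limit in the mean and every replicate; inconclusive means no clear call; three in four hits are not shown here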
Target sequence (Q9HCT0 whole entry, looked up): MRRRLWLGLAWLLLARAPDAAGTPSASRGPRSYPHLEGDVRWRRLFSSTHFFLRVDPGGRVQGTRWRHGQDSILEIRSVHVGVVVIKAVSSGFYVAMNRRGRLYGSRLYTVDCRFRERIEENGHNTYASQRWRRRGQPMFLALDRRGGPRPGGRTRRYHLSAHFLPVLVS
MLL AF4-AF9 inh: inhibitors of AF4 peptide binding to AF9, primary screen, biochemical, AlphaScreen, biotin-AF4 peptide, FLAG-AF9, single point; 350,000 tested, 0.47% active; inhibition, % at 10 µM; Protein AF-9 (Homo sapiens), P42568;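 active means every replicate reaching a set inhibition limit, whatever the replicate mean, cut at about 25% in these data; inconclusive means mean inhibition reaches that limit but some replicates miss it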;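 further: 0% = plate neutral control median and 100% = total signal loss; the record names both 10 and 1 µM as test concentration; the first replicate is given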
Target sequence (P42568 whole entry, looked up): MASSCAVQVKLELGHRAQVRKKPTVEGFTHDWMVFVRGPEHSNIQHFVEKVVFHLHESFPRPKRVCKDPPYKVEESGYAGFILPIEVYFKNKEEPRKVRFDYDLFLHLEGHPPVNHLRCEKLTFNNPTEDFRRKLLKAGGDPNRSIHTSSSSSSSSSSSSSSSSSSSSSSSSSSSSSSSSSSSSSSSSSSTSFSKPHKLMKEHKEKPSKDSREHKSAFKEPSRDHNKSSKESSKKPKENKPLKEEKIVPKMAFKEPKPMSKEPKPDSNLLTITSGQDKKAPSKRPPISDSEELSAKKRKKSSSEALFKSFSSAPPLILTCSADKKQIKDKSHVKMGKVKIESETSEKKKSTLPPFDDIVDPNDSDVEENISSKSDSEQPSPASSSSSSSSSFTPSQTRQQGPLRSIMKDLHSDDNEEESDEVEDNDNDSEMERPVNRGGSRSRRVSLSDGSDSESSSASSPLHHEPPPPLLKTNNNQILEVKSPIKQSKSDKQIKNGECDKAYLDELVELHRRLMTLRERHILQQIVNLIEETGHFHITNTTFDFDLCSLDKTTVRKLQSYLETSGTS
HNF4A DNA FP: change in binding of human HNF4A to DNA, primary screen, biochemical, fluorescence polarization, FITC-DNA; Hepatocyte nuclear factor 4-alpha (Homo sapiens), P41235; 1 h; activity change, % at 10 µM; 360,000 tested, 0.3% active; AID 1224865, 2016; in the data active means activity change above about 30%, passing the limit was not always enough;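 further: controls were the assay level and a saturating level of protein; the project sought stronger binding though the title names inhibitors; some compounds called inactive have numbers as strong as hits; positive values seem to mean higher polarization but the record does not say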
* hit, by the source's call; i = inactive; ? = inconclusive; . = not tested or not shown; & = joins results of further samples. Some of the compounds tested; count on the stated rates, not on these rows.

Below each compound – Vif A3G	UCH37 DUB inh	E coli growth	RanGTP-Impb inh	FGF22 binding	MLL AF4-AF9 inh	HNF4A DNA FP
[1] CC(=O)C(Cc1ccccc1)NC(=O)COC(=O)c1cc(S(=O)(=O)N2CCOCC2)ccc1F (stereo not given)
    3.4%	.	.	.	i	3.1	3.2
[2] CCOc1ccc(N2CC(C(=O)NCc3ccc(F)cc3)CC2=O)cc1 (stereo not given)
    0.5%	2.9	0.703	-1.4	.	.	-0.8
[3] COC(=O)c1ccc(NS(=O)(=O)N(C)C)cc1
    -8.0%	-2.1	0.7	4.5	.	.	4.9
[4] Cc1cc(C)nc(N(C#N)C(C)C(=O)N(C)C)n1 (stereo not given)
    .	5.7	0.721	-4.7	.	.	-2.2
[5] CN1CCN(C(=O)C2CCCCC2C(=O)O)CC1 (stereo not given)
    -0.7%	3.1	0.746	-1.3	i	2.3	1.9
[6] COC(=O)[C@]12CCCCC=C1N(CCc1ccc(OC)c(OC)c1)C(=O)[C@H](CC(=O)NCc1ccccc1)C2
    .	.	.	.	i	0.7	-0.6
[7] O=P1(O)C=C(c2ccccc2)OC(c2ccccc2)=C1
    4.9%	1.1	0.718	6.0	.	.	3.1
[8] C/C(=N\NC(=O)c1cccc(S(=O)(=O)N2CCCC2)c1)c1ccncc1
    -7.2%	.	.	.	i	-4.0	-1.1
[9] COc1cccc(OC)c1C(=O)NC(=O)Nc1c(C)cccc1C
    -5.7%	4.2	0.666	-1.1	i	-0.3	0.6
[10] Cc1c(NC(=O)c2cnn3c(C(F)(F)F)cc(-c4ccco4)nc23)c(=O)n(-c2ccccc2)n1C
    8.0%&-0.9%	9.3	0.724	-2.0	.	.	-0.7
[11] Cc1ccc(NC(=O)C(C)N2C(=O)c3ccccc3S2(=O)=O)cc1Cl (stereo not given)
    -3.0%	6.0	0.685	6.0	i	-5.5	-3.7
[12] CCCC(=O)C1=C(O)C(C(=O)OC)C(C)(C)CC1=Nc1ccc(C)cc1 (stereo not given)
    .	3.4	0.675	-1.0	i	1.1	-5.1
[13] O=C(NCCCN1CCOCC1)c1cc(-c2ccc(Br)cc2)nc2ccccc12
    -2.4%	-4.8	0.658	-1.1	i	7.4	4.0
[14] C=CCn1c(CCCOc2ccc(Cl)cc2Cl)n[nH]c1=S
    8.3%	4.1	0.666	-0.7	i	-2.6	-0.6
[15] CCOC(=O)c1cnc(-n2nc(C)cc2C)nc1Oc1ccccc1F
    9.3%	2.2	0.675	2.6	i	1.5	-3.1
[16] COCCN1C(=O)CS/C1=C(/C#N)C(=O)NCc1ccco1
    1.7%	0.5	0.707	1.2	i	-1.2	6.4
[17] CC(C)N(Cc1ccccc1)C(=S)Nc1ccc(OC(F)F)cc1
    .	3.0	0.679	4.8	.	.	-0.6
[18] Cc1nc(Cl)c(C(=O)NCc2ccccc2)c(C)c1Cl
    -15.4%	2.6	0.688	-2.5	i	-1.1	-0.6
[19] Cn1ccc2c(-c3ccc(C(F)(F)F)cc3)cc3c(c21)C1CCC3C1 (stereo not given)
    .	.	.	.	i	5.4	3.5
[20] Cn1c(=O)c2c(nc(SCC(=O)N3CCOCC3)n2C)n(C)c1=O
    -6.4%	1.8	0.692	1.4	i	-1.5	3.4
[21] CCOC(=O)C1CCN(C(=O)C2CCCN(S(=O)(=O)c3ccc(OC)c(Cl)c3)C2)CC1 (stereo not given)
    .	2.0	0.731	-1.5	i	2.5	-2.4
[22] COc1ccc(CCNC(=O)Cn2c(=O)cnc3ccccc32)cc1
    -4.1%	-49.0	0.675	-0.8	.	.	-3.5
[23] CCn1c(=O)c2ccccc2n(Cc2cccc([N+](=O)[O-])c2)c1=O
    -3.6%	1.7	0.68	2.6	i	-0.5	-1.8
[24] Cc1ccc(NC(=O)CCC(=O)N2CCOc3ccccc32)c(Cl)c1
    .	1.0	0.689	-5.2	i	-17.7	2.5
[25] COc1ccc(CC(C)CC(=O)Nc2ccc(OC)cc2)cc1 (stereo not given)
    2.1%	2.4	0.661	-2.7	i	-3.4	1.4
[26] Cn1c(NC(=O)CCc2ccccc2)cc(=O)n(C)c1=O
    0.9%	3.4	0.736	-2.5	i	-5.7	1.6
[27] COc1c(O)ccc(C2NC(=O)NC(C)=C2C(=O)Nc2ccccc2C)c1[N+](=O)[O-] (stereo not given)
    ?	2.5	0.719	-3.8	i	-1.2	4.7
[28] COC(=O)C1CCN(c2nc3ccccc3nc2C(C#N)C(=O)NCCc2ccccc2)CC1 (stereo not given)
    -0.8%	-4.9	0.814	6.3	.	.	7.2
[29] Cc1cc(C(=O)NNC(=O)CCC2CCCCC2)c(C)o1
    81.2%	4.3	0.636	-4.5	i	-3.3	-1.9
[30] CCCC(C(=O)NCCc1ccc(S(N)(=O)=O)cc1)c1ccccc1 (stereo not given)
    .	-1.6	0.7	-4.0	i	-9.9	-1.2
[31] Cc1cc(C)cc(C(=O)/C=C2\NC(=O)CS2)c1
    2.5%	3.6	.	2.8	.	.	-2.2
[32] CCN(CC)C(=O)c1ccc(Oc2ccc([N+](=O)[O-])cc2Cl)cc1
    .	3.5	0.703	-1.1	i	7.3	0.7
[33] CCn1c(=O)c(C(=O)NCCCc2ccccc2)c(O)c2ccccc21
    .	1.4	0.647	0.3	i	-3.9	0.6
[34] Cc1nc(N2CCCCC2)c2sc(=S)n(C)c2n1
    -7.7%	3.9	0.759	-0.6	i	0.4	6.5
[35] CC(C)N(Cc1cc2ccccc2[nH]c1=O)C(=O)c1cccc([N+](=O)[O-])c1
    -5.3%	6.4	0.676	0.3	i	-3.7	1.4
[36] O=C(NCCN1CCN(C(=O)c2cccc([N+](=O)[O-])c2)CC1)C(=O)NCc1ccc(Cl)cc1
    .	0.6	0.683	.	i	0.0	-1.6
[37] O=C(Cc1ccccc1)Nc1cccc(N2CCCC2)c1
    10.5%	1.2	0.664	4.9	.	.	5.7
[38] COc1cccc(/C=C/C(=O)OCC(=O)NC2CCCC2)c1
    -8.2%	.	.	.	i	1.7	0.7
[39] Cc1cc(C(=O)CCC(=O)Nc2ncccc2O)c(C)s1
    10.6%	5.7	0.625	6.3	i	7.6	3.6
[40] O=C(Cc1ccc(Cl)cc1Cl)NCc1cccnc1
    .	3.9	0.678	6.4	i	-1.0	-2.5
[41] COc1ccc(NCC(=O)N/N=C/C=C\c2ccccc2)cc1
    14.4%	.	.	1.2	i	8.3	-1.7
[42] CC(=O)Nc1cccc(C(=O)NNC(=O)c2ccccc2-n2cccc2)c1
    .	3.1	0.658	.	i	1.9	-2.2
[43] CCN(C(=O)CSc1cc(C)c2cccc(C)c2n1)C1CCS(=O)(=O)C1 (stereo not given)
    -0.5%	3.8	0.717	5.7	i	-2.5	-3.0
[44] COc1ccc(NS(=O)(=O)c2ccc(NC(=O)c3ccccc3)cc2)nn1
    -4.8%	2.6	0.703	4.2	i	-1.6	3.7
[45] CCOc1ccc(C(=O)Nc2c3c(nn2-c2ccc(C)cc2)CS(=O)C3)cc1OCC (stereo not given)
    -0.4%	1.1	0.748	.	i	0.4	3.6
[46] CCSc1c([N+](=O)[O-])c(=O)n(-c2ccccc2)c2ccccc12
    .	5.0	0.616	1.2	i	.	0.5
[47] COc1ccc(C2CC(=O)Oc3cc(C)c(Cl)c(C)c32)cc1 (stereo not given)
    0.0%	1.9	0.72	.	i	-5.0	0.7
[48] COc1cc(OC)cc(-c2c(Sc3ccccc3)c3cc(-c4ccc(SC)cc4)ccc3n2C)c1
    .	.	.	.	i	-1.1	5.3
[49] O=C(Nc1cccc(Cl)c1)c1ccc2ncsc2c1
    .	-0.8	0.601	-3.4	i	-2.3	-1.7
[50] NC(=O)c1ccc(NC(=O)CSC2=Nc3ccccc3C3CC=NN23)cc1 (stereo not given)
    -19.0%	4.2	0.722	?	.	.	2.7

Other structures:
Below each compound – Vif A3G	UCH37 DUB inh	E coli growth	RanGTP-Impb inh	FGF22 binding	MLL AF4-AF9 inh	HNF4A DNA FP
[51] CCCC(=O)Nc1nc(C)c(-c2csc(Nc3ccccc3OC)n2)s1
    -2.8%	-2.8	0.715	-4.3	i	3.0	9.6
[52] COc1cc(NC(=O)CCNC(=O)Cn2cnc3ccccc3c2=O)cc(OC)c1OC
    6.2%	0.6	0.673	-1.7	.	.	2.0
[53] CCCC(=O)N1N=C(c2ccccc2)CC1c1cn(C)c2ccccc12 (stereo not given)
    -3.2%	2.6	0.704	-5.1	.	.	3.4
[54] CC(C)(C)NC(=O)COc1coc(CN2CCN(C(=O)c3ccco3)CC2)cc1=O
    .	0.8	0.706	1.4	i	-0.7	-3.5
[55] CCOC(=O)c1c(CCl)nc2ccccc2c1-c1ccccc1
    12.8%	.	.	1.7	i	-14.9	4.9
[56] CCOC(=O)C1=C(NC#N)OC(C)=C(C)C1c1ccc(O)cc1 (stereo not given)
    -1.1%	1.3	0.777	1.7	.	.	0.2
[57] COc1ccccc1NC(=O)COC(=O)c1c(NC(C)=O)sc(C)c1C
    66.7%	.	.	.	i	-2.5	1.4
[58] COc1ccc(O)c(/C=N/N=C/c2cccc([N+](=O)[O-])c2)c1
    .	.	.	1.1	i	1.4	-0.7
[59] CCCCN(C(=O)CC1CCCCC1)c1c(N)n(CC(C)C)c(=O)[nH]c1=O
    0.0%	-0.5	0.665	.	i	-4.2	2.3
[60] O=C(COC(=O)COc1ccccc1)Nc1ncc([N+](=O)[O-])s1
    .	6.3	0.59	.	i	-4.5	-8.2
[61] Cc1c(C(=O)N2CCCCC2)sc(NC(=O)C2CC2)c1C#N
    3.6%	5.1	0.668	4.1	i	1.2	1.8
[62] O=c1cc(CN2CCN(c3ccccc3F)CC2)c2c(ccc3ccccc32)o1
    .	.	.	.	i	4.8	1.5
[63] C=CC[n+]1c(C)csc1Nc1cccc(Br)c1
    .	0.1	0.701	-2.4	i	?	3.5
[64] O=C(CSc1cccc(C(F)(F)F)c1)Nc1ccc(Cl)cc1Cl
    -0.3%	1.4	0.681	1.9	.	.	-3.6
[65] CC(C)N1C(=O)S/C(=C/c2ccc(Sc3nc4ccccc4[nH]3)o2)C1=O
    .	-6.5	0.645	-2.7	i	4.0	87.7*
[66] O=S(=O)(NCc1ccccc1)c1ccc(S(=O)(=O)N(Cc2ccccn2)C2CCCC2)cc1
    .	1.7	0.743	1.3	.	.	-5.3
[67] CCc1ccc(-c2nc(CS(=O)CC(=O)NCCc3ccccc3)c(C)o2)cc1 (stereo not given)
    .	1.4	0.701	0.3	i	-3.6	-3.6
[68] O=C(CN(c1ccccc1)S(=O)(=O)c1ccc(Cl)cc1)Nc1cccnc1
    0.1%	-0.5	0.708	2.0	.	0.2	0.6
[69] COc1ccc(-n2nnnc2C(c2cccc(OC)c2OC)N2CCN(C/C=C/c3ccccc3)CC2)cc1 (stereo not given)
    .	.	.	.	i	5.7	3.9
[70] O=C(c1cc2c(s1)-c1ccccc1OC2)N1CCN(c2ccccn2)CC1
    -16.4%	-14.4	0.78	-2.0	.	-2.4	-0.3
[71] CCOC(=O)c1cc(CC)sc1N1C(=O)CC(Sc2ncccc2C(=O)O)C1=O (stereo not given)
    -9.7%	0.2	0.672	.	i	-1.1	-2.1
[72] CCN(c1ccccc1)S(=O)(=O)c1ccc(OC)c(NC(=O)c2cccs2)c1
    ?	-0.4	0.712	2.6	i	-1.2	2.6
